Bioassay records (PubChem)
Vaccinia mCherry: qHTS for Stage-Specific Inhibitors of Vaccinia Orthopoxvirus: mCherry Reporter Primary qHTS | Vaccinia virus mCherry reporter infection, fluorescence; about a quarter of the inactives have no number | Potency, µM (top dose mostly 36.5 µM), inactives show at the highest dose activity change, negative = inhibition, actives largely listed as inhibitors | hit rate 0.63% among 310,000; active = well fitted inhibition curve with a large enough effect; inconclusive = small, poorly fitted or top-dose-only effect; inactive = no such curve, though single readings can be large or run the other way; tested in A549 cells; also: nearly all actives have a fitted effect of over 35% in size; inactives centre near -10
Vaccinia Venus: qHTS for Stage-Specific Inhibitors of Vaccinia Orthopoxvirus: Venus Reporter Primary qHTS. Vaccinia virus Venus reporter expression, fluorescence. Potency, µM (highest dose often 36.5 µM), without a hit: top-dose activity change, negative = inhibition, actives largely listed as inhibitors. hit rate 0.46% among 330,000. AID 720580, 2013; active means well fitted inhibition curve with a large enough effect; inconclusive means small, poorly fitted or top-dose-only effect; inactive means no such curve, though single readings can be large or run the other way; tested in A549 cells; also: nearly all actives have a fitted effect of over 30% in size; inactives centre near -10
Starred values were filed as active, the others as inactive; i = inactive; ? = inconclusive; . = not tested or not shown; & = joins results of further samples; [ ] = another dose, or the depositor's remark. % is scaled to controls: 0 for no effect and ±100 for the full control effect; potency is read from the fitted curve at half-maximal effect.

smiles | Vaccinia mCherry | Vaccinia Venus
CCOc1ccccc1N(CC(=O)NCc1ccc(OC)cc1)S(C)(=O)=O | -5.5% | -13.3%
COc1cc(C)c(Br)cc1S(=O)(=O)NCc1cccs1 | i | -16.0%
COc1cc2[nH]c(=O)n(CCCC(=O)N(C)Cc3ccccc3)c(=O)c2cc1OC | -5.3% | -5.0%
CCC1=Nc2cc(C(=O)O)ccc2Sc2ccccc21 | 29.0% | -3.5%
O=C1c2ccccc2C(=O)c2c1cccc2N(CCO)CCO | -24.5% | -9.2%
CCn1nc(NS(=O)(=O)c2ccc(F)cc2)c2cc3cccc(C)c3nc21 | -0.2% | -5.2%
Cc1ccc(C)c(NC(=O)N(C)CCc2c(C)nn(C)c2C)c1 | -10.7% | 2.2%
CC(NC(=O)c1ccccc1NC(=O)c1ccncc1)c1ccccc1 (stereo unspecified) | -11.4% | -28.8%
O=c1oc2ccccc2cc1-c1nc2c(s1)CCc1ccccc1-2 | 31.8%[activator] | 7.6%&-13.6%
COc1cc(OC)cc(-c2c(C#Cc3ccsc3)c3cc(-c4ccccc4OC)ccc3n2C)c1 | -14.7% | -5.9%
Cc1c(C(=O)O)sc2nc3n(c(=O)c12)CCC(C)CC3 (stereo unspecified) | -16.0% | -2.8%
O=C(CCl)c1ccc2c(c1)CCCC2 | -17.5% | -23.2%
Cc1cc(CNC(=O)COc2ccc(F)cc2F)c2ccccc2n1 | -23.5% | -14.6%
COc1ccc(S(=O)(=O)N2CCOCC2)cc1NC(=O)c1cc2ccccc2o1 | -14.9% | -7.4%
C=CCN(CC=C)S(=O)(=O)c1ccc(NC(=S)NC(=O)c2ccc(-c3ccccc3)cc2)cc1 | . | ?
COc1ccc(-c2noc(-c3ccc(NCC4CCCO4)c([N+](=O)[O-])c3)n2)cc1 (stereo unspecified) | -6.2% | -17.8%
CC(=O)N/C(=C\c1ccc(F)cc1)C(=O)N(C)C | -1.7% | -1.7%
CC(C)(C)OC(=O)CNC(=O)c1nc[nH]c1C(=O)N1CCNCC1 | i | -13.6%
O=C(Nc1nccs1)C(=O)c1c[nH]c2ccccc12 | ? | -26.7%
CCOc1cc(C2c3c(oc4ccccc4c3=O)C(=O)N2Cc2ccccc2Cl)ccc1O (stereo unspecified) | -8.8% | 1.0%
Cc1cc(C)c2cc(C#N)c(NCCCNC(=O)c3ccncc3)nc2c1 | -1.1% | ?
N#Cc1cc2c(=O)n3ccccc3nc2n(Cc2ccco2)c1=NC(=O)c1ccco1 | 11.9% | -7.5%
COCCNC(=O)C1(C)CCCN(Cc2cc(C)ccc2C)C1 (stereo unspecified) | -7.3% | -2.8%
Cc1oc(C(C)(C)C)cc1C(=O)N1CCN(c2ncccc2C(F)(F)F)CC1 | -8.5% | ?
CCOc1ccc(NC(=O)CSc2nnc(C)n2C2CC2)cc1S(=O)(=O)N1CCCC1 | i | -13.0%
Cc1ccccc1-c1nc2cc(Cl)ccc2c(=O)o1 | -6.7% | -18.2%
CCOc1ccc(CNC(=O)c2cnc3sc(N4CCC(C)CC4)nn3c2=O)cc1OC | -28.7% | -25.6%
CCCCC(Br)C(=O)Nc1ccc(S(=O)(=O)Nc2cc(C)nc(C)n2)cc1 (stereo unspecified) | i | -3.7%
Cc1c(C(=O)O)oc2ccc(S(=O)(=O)N3CC(C)CC(C)C3)cc12 (stereo unspecified) | . | -2.7%
CCOc1c(Br)cc(C2CC(=O)Nc3cc(OC)c(OC)cc32)cc1OC (stereo unspecified) | -15.2% | -25.3%
Clc1ccccc1Nc1ncnc2c1nc1n2CCCCC1 | -15.6% | -11.1%
COCC1CCN(C(=O)c2ccc3oc(CCCc4ccccc4)nc3c2)C1 (stereo unspecified) | -20.9% | ?
Cc1cc(=O)n2nc(N3CCCC(C(=O)NCc4ccccc4C)C3)sc2n1 (stereo unspecified) | -2.2% | -8.4%
CN(C(=O)C(C)(C)C)[C@H]1C[C@H]2c3[nH]c4ccccc4c3CCN2C(=O)[C@H]1CO | i | -6.2%
C[C@H](NC(=O)Cc1cccc2ccccc12)C(=O)N1CCOCC1 | -0.6% | -7.1%
COc1ccccc1C1CCN(Cc2ccc3ccccc3c2)CC1 | -19.9% | -12.0%
O=C(O)COCC(=O)N1CCCN(c2ccc(C(F)(F)F)cn2)CC1 | -2.1% | -5.2%
CCOC(=O)Cc1csc(NC(=O)CCCCCN2C(=O)c3ccccc3C2=O)n1 | -18.7% | -18.7%
COc1ccncc1-c1csc(C(O)c2ccccc2)n1 (stereo unspecified) | -27.5% | -17.9%
CCN1C(=O)[C@H]2[C@@H](c3ccc(-c4ccc(OC)cc4)c(OC)c3)N[C@@](C)(C(=O)OC)[C@H]2C1=O | -2.9% | -15.6%
COC(=O)c1cc([N+](=O)[O-])c(-n2ccnc2)c([N+](=O)[O-])c1 | -16.5% | -1.2%
O=C(c1cn(-c2ccccc2)nc1-c1cccnc1)N1CCCC(C(F)(F)F)C1 (stereo unspecified) | -12.7% | -9.8%
COc1ccc(N2CCN(C(=O)c3cc4c(=O)n(Cc5cccnc5)ccc4nc3C)CC2)cc1 | -4.0% | -14.8%
O=C(Cn1c(COc2ccccc2)nc2ccccc21)Nc1cccc(Cl)c1 | ? | ?
CC(C)Cc1nc(N2CCN(C(=O)c3ccco3)CC2)c(C#N)c2c1CCC2 | -19.5% | -12.8%
CCCCn1c(N)c(N(CCOC)C(=O)COC(=O)CCOc2ccccc2)c(=O)[nH]c1=O | -11.7% | -3.2%
Cc1ccccc1Nc1nc(N)nc(COC(=O)/C=C/c2ccco2)n1 | i | 0.7%
CC(C)(C)C(=O)OCc1cc(=O)n2nc(C3CCCCC3)sc2n1 | -3.7% | -0.8%
COc1ccccc1-c1sc2ccccc2c1-c1ccc(C(C)=O)cc1 | -3.2% | -13.8%
CCCCCNC(=O)c1ccc2c(=O)n(CCCOCC)c(=S)[nH]c2c1 | i | -12.5%
CCCCCc1ccc(S(=O)(=O)Nc2cc(C)ccn2)cc1 | -1.2% | -10.6%
CC(=O)c1cccc(CN2CCC(n3nccc3NC(=O)CCOc3ccccc3)CC2)c1 | ? | ?
Cn1cc(CN2CCC(n3nccc3NC(=O)Cc3ccccc3)CC2)cn1 | i | -9.5%
c1cncc(-c2nn[nH]n2)c1 | -14.6% | -6.9%
Cc1ccc(NC(=O)CSc2nc(=O)n(Cc3ccccn3)c3c2CCC3)cc1F | -27.6% | -15.4%
Cc1cccc(NC(=O)c2cccc(N3C(=O)CCC3=O)c2)c1 | -1.4% | -4.9%
COc1cc(/C=C2\SC(=Nc3cccnc3)NC2=O)cc(OC)c1OC | 4.9% | 56.7%[activator]
O=C(c1cccs1)c1cn(CCOc2ccc(Cl)cc2)c2ccccc12 | -12.1% | -6.6%
CSC[C@H]1CN(c2ccccc2)C(=O)[C@@H]1CC(=O)Nc1ccc(Br)cc1 | -11.2% | -10.3%
COC(=O)[C@H](Cc1ccc(O)cc1)NC(=O)Cn1ccc(NC(=O)OCc2ccccc2)nc1=O | i | 6.2%

Carrying on.
smiles | Vaccinia mCherry | Vaccinia Venus
COc1cccc(/C(O)=C2/C(=O)C(=O)N(CCN(C)C)C2c2ccccn2)c1 (stereo unspecified) | -10.0% | 13.8%
Cc1ccc2nc(NC(=O)CSCc3ccccc3)sc2c1 | -14.8% | -12.8%
CC12C(=O)N(Cc3ccco3)C(=O)C1C1c3ccccc3C2c2ccccc21 (stereo unspecified) | -10.9% | -12.3%
CC1CCCN(C(=O)COc2ccc(Nc3ccccc3)cc2)C1 (stereo unspecified) | 4.5% | -7.8%
CCN1CCN(Cc2ccc(NC(=O)c3ccc(C)c(NC(=O)c4ccnnc4)c3)cc2C(F)(F)F)CC1 | i | -25.4%
CCc1nc2c(OCc3ccc(C(F)(F)F)cc3)cccn2c1N(C)C(=O)C(C)C | ? | ?
O=c1[nH]c(NCCO)nnc1Cc1ccc(Cl)cc1 | -6.5% | 1.3%
O=[N+]([O-])c1ccc(CN2CCOCCOCCOCC2)cc1 | -5.1% | -6.2%
CN1CCN(C(=O)C2=C[C@@H](c3ccc4c(c3)OCO4)C[C@@H](OCc3ccc(CO)cc3)O2)CC1 | i | 1.2%
CC1CC(C)(C)CC2(C1)NC(=O)N(CC(=O)Nc1ccc3c(c1)OCO3)C2=O (stereo unspecified) | i | -10.7%
COc1ccccc1C(C)NC(=O)c1ccc(S(=O)(=O)NCc2ccco2)cc1 (stereo unspecified) | ? | -19.4%
COc1ccc(N(C)S(=O)(=O)c2cccc(C(=O)N3CCN(Cc4ccc5c(c4)OCO5)CC3)c2)cc1 | -13.1% | -17.4%

Structures shown so far that have an aryl thioether with sulfur outside any ring:
smiles | Vaccinia mCherry | Vaccinia Venus
CCOc1ccc(NC(=O)CSc2nnc(C)n2C2CC2)cc1S(=O)(=O)N1CCCC1 | i | -13.0%
Cc1ccc(NC(=O)CSc2nc(=O)n(Cc3ccccn3)c3c2CCC3)cc1F | -27.6% | -15.4%

The results go on.
smiles | Vaccinia mCherry | Vaccinia Venus
CC(=O)C(C(C)=O)c1c(Cl)c(O)c(O)c2c(C(=O)c3ccccc3)coc12 | i[1.46 µM] | ?
COC(=O)C(CCSC)NC(=O)C1CCN(c2ncnc3c2nc2n3CCCCC2)CC1 (stereo unspecified) | i | -7.2%
C[C@@H]1CN([C@H](C)CO)C(=O)c2cccc(NC(=O)Nc3ccc(F)cc3)c2O[C@H]1CN(C)C(=O)Nc1ccc(C(F)(F)F)cc1 | -28.3% | ?
CCCOC(=O)c1ccc(Oc2c(-c3ccc(O)cc3O)n[nH]c2C)cc1 | . | ?
O=C(NC1CCCCC1)NC1(C(=O)N2CCN3CCCC3C2)CCCCC1 (stereo unspecified) | -9.2% | -1.8%
Oc1ccc(N2CCN(C(c3ccccn3)c3nnnn3C3CCCC3)CC2)cc1 (stereo unspecified) | -7.5% | 13.2%
O=C1NN(c2ccccc2)C(=O)/C1=C\c1ccccc1OCC(=O)N1CCOCC1 | i | -4.9%
O=C(NCCc1ccc(F)cc1)C(=O)NCC(c1ccco1)S(=O)(=O)c1cccs1 (stereo unspecified) | -18.7% | -16.4%
O=C(O)CCNS(=O)(=O)c1ccccc1C(F)(F)F | -5.5% | -2.7%
O=C(Nc1ccc(Oc2ccc(NC(=O)C3CCCO3)cc2)cc1)C1CCCO1 (stereo unspecified) | . | -21.7%
COc1ccc(CN(Cc2ccccc2)C(=O)c2ccco2)cc1COc1ccc(NC(C)=O)cc1 | i | -8.1%
O=C(C1CC(=O)N(c2ccc(F)c(Cl)c2)C1)N1CCC2(CC1)OCCO2 (stereo unspecified) | -5.2% | -12.3%
Cc1nc(N2CCC(C(N)=O)CC2)c2nnn(Cc3ccccc3)c2n1 | i | -1.8%
O=C(c1ccc2c(c1)OCO2)N1CCC(Cc2ccccc2)CC1 | -11.9% | -24.3%
Cc1cccc(C)c1NC(=O)Cn1c(=O)n(CCC(=O)NCc2ccc3c(c2)OCO3)c(=O)c2sccc21 | -5.3% | -7.1%
Cc1cccc(OCC(=O)Nc2cc(-c3nc4cc(Cl)ccc4o3)ccc2C)c1 | -13.4% | ?
Cc1ccc(-c2cc(-c3ccc4c(c3)NC(=O)CO4)nc3c2COc2ccccc2-3)cc1 | -17.3% | -16.8%
COCCN1C(=O)N[C@@H](c2ccccc2)[C@@H](C(=O)OC)[C@H]1C | -11.0% | -10.8%
Cc1cccc(OCc2nnc(SCC(=O)OC3CCCCC3)o2)c1 | -6.8% | -4.7%
CCCCN(C)C(=O)C1CCCN(S(=O)(=O)c2ccc3c(c2)CC(C)N3C(=O)C2CC2)C1 (stereo unspecified) | -22.0% | ?
O=C(CSc1nc2[nH]ncc2c(=O)n1-c1ccccc1)c1ccc2c(c1)OCCO2 | -24.4% | -22.8%
O=C(O)c1cc(-c2ccccc2Cl)n(-c2ccccc2)n1 | i | 0.3%
Cc1ccc(NC(=O)Nc2c(C)n(C)n(-c3ccccc3)c2=O)cc1 | -11.1% | -5.6%
CCCCN(CC)CCCn1cnc2c([nH]c3ccc(Cl)cc32)c1=O | 0.9% | -1.6%
C=C1CCN([C@@H](C)C(=O)NCCCCCC)S(=O)(=O)c2ccccc21 | i | -8.2%
O=C(COC(=O)c1ccc(Br)o1)NCC1CCCO1 (stereo unspecified) | -9.4% | -3.3%
CCOC(=O)N1CCC2CC1c1cc(Cl)ccc12 (stereo unspecified) | i | 0.0%
O=C(N/N=C/c1ccc(-c2cccc([N+](=O)[O-])c2)o1)c1ccc([N+](=O)[O-])cc1 | -18.4% | -20.2%
CC(C)(C)C(=O)NC(NC(=O)C(C)(C)C)c1ccc([N+](=O)[O-])cc1 | -1.2% | -11.8%
CC(C)(O)C#Cc1ccc(CN2CCN(Cc3ccccc3)C(CCO)C2)s1 (stereo unspecified) | -11.3% | -24.2%
CCOc1cccc(NC(=O)c2sc3nc(-c4ccc(F)cc4)ccc3c2N)c1 | -6.2% | 1.4%
CCn1c(Nc2ccccc2Cl)nc2ccccc21 | -5.1% | -4.6%
CCOc1ccc(N(CC(=O)NCCc2ccccc2)C(=O)CCC(=O)Nc2nccs2)cc1 | -15.7% | -12.9%
CCOc1ccc(NS(=O)(=O)c2cc(C(=O)NCC3CCCO3)ccc2Cl)cc1 (stereo unspecified) | -11.8% | 6.5%
O=C(COc1ccccc1)Nc1nccs1 | i | -11.3%
